D2 agonist = activates the human D2 dopamine receptor; P14416; DiscoveRx PathHunter D2 beta-arrestin, luminescence, 90 min; 100% = 57 uM dopamine signal; activation, % (concentration not given with the values); 360,000 tested, 0.084% active; AID 624465; in the data active = activation above about 40%; inconclusive = about 15% to 40%; inactive = below about 15%; further: compound concentration not given in the record; the text of the record calls up to 30% inactive
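Agonist mode: compounds alone added to overnight-plated D2 PathHunter cells for 90 min at 37 C, with 57 uM final dopamine (EC100) defining full response. Beta-arrestin recruitment detected by chemiluminescent reagent, read after 1 h at ambient temperature.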
gsp agonist = gsp mutant agonism; gsp mutant cells, cAMP HTRF, 30 min; control for the full effect not named in the record; AID 624287; Potency, µM (series often up to 76.9 µM), for inactives: at the top dose activation (cAMP increase), actives largely listed as activators; 340,000 tested, 0.13% active; active = well fitted activation curve with a large enough effect; inconclusive = small, poorly fitted or top-dose-only effect, or another doubt; inactive = no such curve, though single readings can be large or run the other way; cell line not stated here;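 further: phosphodiesterase inhibitor Ro 20-1724 added with compounds to block cAMP breakdown; potency means the concentration at half of the fitted maximal effect; nearly all actives have a fitted effect of over 60% in size; about a fifth of the inactives were tested at one dose only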
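Cells in DMEM/10% FBS with G418 were pretreated with compounds in DMSO plus […] (300 uM stock) for 30 min at 37C. cAMP was measured by HTRF (cAMP-d2 plus anti-cAMP antibody-K) after 30 min at room temperature.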
Six1-Eya2 blk = inhibitors of human Six1/Eya2 interaction | AlphaScreen GST-Six1/His-Eya2 binding, biochemical; hits give low values; control for the full effect not named in the record | activity change, % (concentration not given with the values) | 360,000 tested, 0.56% active; in the data active = activity change below about -65%; inconclusive = about -30% to -65%; inactive = above about -30%; further: on the % scale 0 is the no-effect control and ±100 the full control effect
Target sequence (O00167 whole entry, looked up): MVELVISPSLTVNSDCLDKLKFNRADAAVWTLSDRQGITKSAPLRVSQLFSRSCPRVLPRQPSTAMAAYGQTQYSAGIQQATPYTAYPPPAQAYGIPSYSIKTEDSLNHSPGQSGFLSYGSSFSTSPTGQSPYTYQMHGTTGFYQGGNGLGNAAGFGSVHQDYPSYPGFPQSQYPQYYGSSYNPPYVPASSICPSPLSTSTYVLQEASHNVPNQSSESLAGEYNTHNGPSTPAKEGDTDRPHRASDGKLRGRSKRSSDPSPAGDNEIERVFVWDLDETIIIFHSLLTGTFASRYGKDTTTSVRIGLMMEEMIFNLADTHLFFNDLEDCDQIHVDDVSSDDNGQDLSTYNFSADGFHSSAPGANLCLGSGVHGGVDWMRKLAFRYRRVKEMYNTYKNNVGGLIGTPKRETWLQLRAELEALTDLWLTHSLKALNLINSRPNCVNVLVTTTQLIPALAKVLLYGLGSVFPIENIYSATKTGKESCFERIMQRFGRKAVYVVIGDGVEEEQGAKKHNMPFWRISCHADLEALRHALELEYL
Target sequence (Q15475 whole entry, looked up): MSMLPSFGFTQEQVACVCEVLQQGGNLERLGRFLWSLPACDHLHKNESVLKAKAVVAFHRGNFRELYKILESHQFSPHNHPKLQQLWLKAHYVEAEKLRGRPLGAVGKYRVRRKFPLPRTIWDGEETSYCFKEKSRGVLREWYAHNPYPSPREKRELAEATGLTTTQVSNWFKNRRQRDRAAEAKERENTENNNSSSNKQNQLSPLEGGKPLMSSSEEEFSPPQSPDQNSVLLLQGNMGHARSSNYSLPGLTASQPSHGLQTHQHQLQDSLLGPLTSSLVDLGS
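Homogeneous AlphaScreen proximity assay pairing GST-Six1 with His-tagged Eya2 (added as 5X mix: 250 nM and 500 nM) in 50 mM Tris pH 8.0, 300 mM NaCl, 1 mM TCEP. Glutathione donor and nickel acceptor beads; 1 h, 37 °C, dark.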
CtBP-E1A inh = CtBP/E1A binding inhibition; AlphaScreen GST-E1A/His-CtBP binding, 1536-well; hits give low values; control for the full effect not named in the record; activity change, % (test concentration not listed); 340,000 tested, 0.49% active; AID 651724; in the data active means activity change below about -65%; inconclusive means about -30% to -65%; inactive means above about -30%; further: on the % scale 0 is the no-effect control and ±100 the full control effect; compound concentration not given in the record
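GST-E1A and His-tagged CtBP (125 nM each as 5X stock) were preincubated with pin-transferred compound for 2 h at 37 °C in the dark, then glutathione donor and nickel acceptor beads were added for 1 h before AlphaScreen reading.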
gsp antagonist = antagonizes gsp, the McCune-Albright syndrome mutation; gsp-mutant cells, cAMP HTRF, 30 min; control for the full effect not named in the record; Potency, µM (titrated, usually from 76.9 µM), inactives show at the top dose activity change, negative = inhibition, most hits filed as inhibitors; 340,000 tested, 0.4% active; AID 624288; active = falling curve of any shape with a large fitted effect; inconclusive = falling curve, mostly with a smaller effect; inactive = flat or rising curve; cell line not stated here;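 further: intracellular cAMP measured with PDE inhibitor Ro 20-1724 present during compound exposure; potency means the concentration at half of the fitted maximal effect; on the % scale 0 is the no-effect control and ±100 the full control effect; nearly all actives have a fitted effect of over 65% in size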
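HTRF cAMP read-out (cAMP-d2 plus anti-cAMP antibody-K in lysis buffer, 30 min RT). Before lysis, cells are exposed to compounds with […] for 30 min at 37C in DPBS containing Ca/Mg, BSA and Tween 20.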
D2 potentiator = potentiates the human D2 dopamine receptor allosterically | P14416 | DiscoveRx D2 beta-arrestin cells, luminescence, 90 min; 100% = 57 uM dopamine signal | potentiation, % (test concentration not listed) | 360,000 tested, 0.23% active; active = potentiation of 50% or more; inconclusive = 30% to 50%; inactive = 30% or less;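 further: compound concentration not given in the record; tested on top of an EC20 dose of dopamine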
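PathHunter D2 cells, attached overnight at 37 deg C, received compound in DMSO plus dopamine at EC20 (50 nM final) for 90 min at 37 deg C. Beta-arrestin recruitment was read as luminescence after 1 h with detection reagent at ambient temperature.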
* hit, by the source's call; ? = inconclusive; . = not tested or not shown; [ ] = dose if it differs, or a comment. Compounds were not picked by outcome; about 1.4% have a hit in one of these screens.

#	Compound	D2 agonist	gsp agonist	Six1-Eya2 blk	CtBP-E1A inh	gsp antagonist	D2 potentiator
1	CCOC(=O)C1=C(OCc2ccc(Cl)cc2)C2C=C(C)C=CC2N=C1 (stereo not drawn)	-4.8	8%	-6	-2	?	-4
2	CC(O)[C@H]1CNC(=O)C(=O)N1CC1CCCCC1 (stereo partly drawn)	-2.1	-27%	3	.	?	-1
3	O=C1c2nccnc2C(=O)N1c1ccc(C(F)(F)F)cc1	-0.5	24%[15.4 µM]	1	4	-19%	-4
4	COc1ccccc1N1CCN(S(=O)(=O)c2cn(C)nc2C)CC1	4.2	8%[15.4 µM]	1	0	14%	-15
5	CC1(C)Cc2c(cnn2-c2ccccc2)-c2c1c1ccccc1n2CC(O)CCl (stereo not drawn)	-4.5	20%	-15	-17	-19%	-5
6	COc1ccc(OCC(O)CN(CC(O)COc2ccc(OC)cc2)c2cccc(O)c2)cc1 (stereo not drawn)	0.7	-5%	-13	-18	-4%	8
7	Cc1c(NS(=O)(=O)c2ccc(NCC3CCCO3)c([N+](=O)[O-])c2)c(=O)n(-c2ccccc2)n1C (stereo not drawn)	-5.6	14%	0	.	-17%	-14
8	CCn1c(N)c(C(=O)Nc2ccccc2C(=O)OC)sc1=S	-2.3	-28%	?	-13	?	-12
9	O=C(Nc1cc(C(F)(F)F)ccc1N1CCOCC1)c1ccccc1	-1.6	-13%	1	16	-10%	-4
10	CC(C)Oc1ccc(C2NC(=O)c3ccccc3O2)cc1 (stereo not drawn)	-2.3	-7%[15.4 µM]	0	-19	8%	-8
11	O=C(O)/C=C/C(=O)NC1CCC(CC2CCC(NC(=O)/C=C/C(=O)O)CC2)CC1 (stereo not drawn)	0.0	-2%[15.4 µM]	2	14	16%	-2
12	CC1CCN(S(=O)(=O)N2CCC(C(=O)O)CC2)CC1	-2.8	-11%	19	14	7%	-21
13	CC(C)CC(=O)Nc1ccc(C(=O)Nc2cccc(O)c2)cc1	3.2	-18%	-21	?	-9%	-13
14	O=c1[nH]c2ccc(S(=O)(=O)N3CCN(Cc4ccccc4)CC3)cc2[nH]c1=O	1.0	-3%	-6	-7	6%	-7
15	Cc1ccccc1S(=O)(=O)N1C[C@H]2[C@H]3C(=O)N(C4CCCCC4)C(=O)[C@H]3CC(=O)[C@H]2[C@@H]1c1ccc(Cl)cc1	0.7	.	-3	2	.	4
16	COc1ccc(OC)c(N2C(=NC(=O)C3CCCCC3)SC3CS(=O)(=O)CC32)c1 (stereo not drawn)	-1.4	0%	4	4	-10%	-1
17	COc1cc(NC(=O)CSc2ncnc3sc4c(c23)CCCC4)c(C(=O)O)cc1OC	-4.3	?	-4	-4	-13%	-6
18	CN(CC(=O)Nc1cccc(Cl)c1)C1=NS(=O)(=O)c2ccccc21	0.4	3%[15.4 µM]	-4	7	-8%	-40
19	Cc1[nH]n(-c2ccccc2)c(=O)c1C(c1ccccc1[N+](=O)[O-])C(C#N)C#N (stereo not drawn)	-1.3	8%	-10	.	-17%	-5
20	O=C(N/N=C/c1cccc(OCc2ccccc2)c1)c1ccc(Br)o1	0.2	-4%[15.4 µM]	-14	0	?	-9
21	COc1ccc(N=c2sc3ccccc3n2C)cc1	-2.9	-52%[inhibitor]	-3	17	-35%	-6
22	COc1ccc(S(=O)(=O)N2CCC(C)CC2)cc1OC	0.0	0%	0	.	8%	-2
23	CCOc1ccc(NC(=O)c2cc(C3CC3)nc3c2cnn3C(C)C)cc1OC	1.9	6%	-4	-2	-6%	-1
24	CN(C)NC(=O)c1ccsc1NC(=O)c1ccc(S(=O)(=O)N(C)C)cc1	0.4	-4%	-10	-18	-10%	2
25	CCc1nnc(NC(=O)CSc2nnc(COc3ccccc3)n2Cc2ccccc2)s1	-0.7	-29%	5	6	4%	-11
26	CCCCCn1ccc(=O)c2c(C(F)(F)F)nccc21	-1.7	-5%	1	5	-24%	8
27	Fc1ccc(-c2nc3ccc(Cl)cn3c2Cc2ccccc2C(F)(F)F)cc1	2.5	.	10	-11	.	-3
28	Nc1ccc(S(=O)(=O)N2CCOCCOCCOCCOCCOCC2)cc1	4.4	3%[15.4 µM]	3	0	11%	-7
29	O=C(COC(=O)c1cc2c(s1)CCC2)Nc1ccc(F)cc1	1.1	-3%[15.4 µM]	0	6	8%	2
30	Cn1c(Cn2c(=O)sc3ccccc32)nnc1SCC(=O)NCc1ccccc1Cl	-2.9	3%	2	-23	-5%	-3
31	COc1cc(OC)c(C(=O)N/N=C/c2ccoc2)cc1OC	-2.1	0%	-14	-2	3%	-15
32	COC(=O)c1nnn(CC(=O)NC(=O)Nc2ccc(F)cc2)c1C(=O)OC	2.6	-19%	-1	10	-6%	6
33	O=C(c1ccc2c3c(cccc13)CC2)C1CCCN(C(=O)c2ccc(=O)[nH]c2)C1 (stereo not drawn)	-4.1	-7%[15.4 µM]	-7	0	-13%	-5
34	CCOC(=O)[C@H]1[C@H]2COc3ccc(Br)cc3[C@@H]2N2C(=O)c3c(C)cc(C)cc3NC(=O)[C@@]12C	-1.1	.	-8	-4	-8%	-5
35	COc1ccc(CNC(=O)NC2CCCCC2)cc1	-3.1	-16%	3	7	-2%	-16
36	Cc1cc[n+](CC2OCc3ccccc3CO2)cc1	-3.4	0%	-1	7	7%	0
37	O=C(NC12CC3CC(CC(C3)C1)C2)c1cccc([N+](=O)[O-])c1	-2.4	-2%	-4	-9	-10%	-2
38	O=C(c1ccc2ccccc2c1)N1CCCC1	1.4	11%[15.4 µM]	-12	-2	6%	-5
39	O=C(CS(=O)(=O)c1cn(CC(=O)N2CCOCC2)c2ccccc12)NCc1ccccc1	-0.5	9%[15.4 µM]	-5	4	15%	-9
40	O=C(OCC(=O)N1CCCC1=O)c1cc2ccccc2o1	-2.6	7%[15.4 µM]	1	4	8%	-3
41	Cc1ccc(CN2C(=O)COc3cc(NS(C)(=O)=O)ccc32)cc1	2.7	3%	9	3	5%	7
42	O=C(CN1C(=O)/C(=C/c2ccccc2)SC1=S)NC1CCS(=O)(=O)C1 (stereo not drawn)	-2.0	-1%	4	.	5%	-9
43	Cc1ccc(S(=O)(=O)N2CN(CC3CCCO3)c3nc4ccccc4nc32)c(C)c1 (stereo not drawn)	-0.6	21%	-2	.	6%	-2
44	Cc1c(C(=O)NCCCc2ccccc2)cccc1[N+](=O)[O-]	3.0	9%	0	9	8%	5
45	Nc1nc(Oc2ccc(F)cc2)c(Br)c(=O)[nH]1	-2.0	-22%	7	-3	4%	-4
46	Cc1ccc(C)c2[nH]c(=O)c(CN(CC3CCCO3)C(=S)NCc3ccco3)cc12 (stereo not drawn)	1.4	21%[15.4 µM]	-8	-9	-18%	1
47	Cc1ccc(Cc2c(-c3cccc(Br)c3)nc3ccc(Cl)cn23)cc1	-2.6	.	0	6	.	0
48	O=C(NNC(=S)Nc1ccc(F)c(Cl)c1)C1CC1	-11	17%	4	6	1%	-6
49	COC(=O)c1ccc(NC(=S)NCCc2ccc(OC)cc2)cc1	-1.7	25%	-16	0	-3%	-1
50	O=C(Cc1ccc(Cl)cc1)Nc1ccc(N2CCCC2)cc1	-3.3	26%	-8	2	14%	-5
51	O=C(CCc1ccccc1)Nc1ccnn1C1CCN(Cc2ccc(OCCO)cc2)CC1	-0.8	16%	2	2	15%	-7
52	CC1CCC(NC(=O)CN(C)S(=O)(=O)c2cnc[nH]2)CC1 (stereo not drawn)	0.1	?	-1	3	-3%	-5
53	CCOc1ccc(-n2c(N)c(C(=O)NCc3ccco3)sc2=S)cc1	-3.7	-46%[inhibitor]	-13	-19	-4%	-2
54	CC(=O)N1CCN(C(=O)CSc2ncnc3sc(C)c(C)c23)CC1	0.4	?	-2	-1	12%	-11
55	CCc1ccc(CN(C)C(=O)CCc2nnc(-c3ccc(-c4ccccc4)cc3)o2)nc1	1.5	8%	-4	.	-19%	-9
56	CCOC(=O)C1(CCOc2ccccc2)CCN(Cc2ccc(C)o2)CC1	-0.9	-2%[15.4 µM]	0	2	.	-19

More structures follow:
#	Compound	D2 agonist	gsp agonist	Six1-Eya2 blk	CtBP-E1A inh	gsp antagonist	D2 potentiator
57	COc1ccc2ccc(Oc3ncccn3)cc2c1	-2.9	?	1	12	-2%	4
58	CC1(C)C2C(Cl)(Cl)C2(C)c2ccccc2N1C=O (stereo not drawn)	-3.4	5%[15.4 µM]	5	-2	-7%	-8
59	O=C(Cn1c(NCCCO)nc2ccccc21)c1ccc(Cl)cc1	-4.0	7%	11	.	6%	-33
60	O=[N+]([O-])c1ccc(Cl)c(S(=O)(=O)NCCc2ccccn2)c1	?	6%	9	1	-3%	2
61	O=C(O)c1ccc(NC(=O)c2cccs2)cc1	-0.9	-26%	2	7	0%	-10
62	O=C(CSc1nc(-c2cccs2)cc(C(F)(F)F)n1)NCc1ccco1	-0.1	-26%	-8	-3	3%	-6
63	CN(C)NC(=O)c1ccsc1NC(=O)c1ccc(S(=O)(=O)N2CCCC2)cc1	-2.4	-13%[15.4 µM]	-17	-10	-9%	5
64	OCC[C@@H]1C[C@H](O)[C@@H](O)[C@]2(CCc3ccccc3CO2)O1	-3.1	.	-1	-1	0%	-4
65	Cc1ccc(-c2nnn(CCC(=O)NC3CCCC3)n2)cc1	-0.8	?	6	8	3%	-6
66	CC(=O)CC(C)(C)n1nnc(-c2ccccc2)n1	-2.1	-27%	11	12	11%	11
67	COc1ccc(CCNC(=O)Cn2c(=O)n(-c3ccc(F)cc3F)c(=O)c3sccc32)cc1OC	3.8	-17%[15.4 µM]	-3	1	-28%	4
68	O=c1ccc2cc(S(=O)(=O)Nc3ccc(F)cc3)ccc2o1	-0.7	?	1	0	5%	28
69	NC(=O)c1ccsc1NC(=O)COC(=O)Cc1c[nH]c2ccccc12	-2.1	-18%	-12	-1	-13%	2
70	N/C(CSc1ccc(Cl)cc1)=N\S(=O)(=O)c1ccc(Cl)cc1	-2.1	-25%[15.4 µM]	-2	10	-11%	2
71	Cc1ccc(N(CC(=O)NCc2ccccc2)C(=O)CCC(=O)Nc2ccccn2)c(C)c1	1.1	2%[15.4 µM]	-2	-5	0%	-7
72	Cc1ccc2cn[nH]c2c1N	0.7	-1%	0	-25	-9%	6
73	CCOC(=O)CSc1nnc(NC(=O)CN2CCCCC2)s1	-1.7	23%	7	6	1%	4

Record cards (already shown). Order of values: D2 agonist | gsp agonist | Six1-Eya2 blk | CtBP-E1A inh | gsp antagonist | D2 potentiator
`N/C(CSc1ccc(Cl)cc1)=N\S(=O)(=O)c1ccc(Cl)cc1` is listed with -2.1 | -25%[15.4 µM] | -2 | 10 | -11% | 2
`CC(=O)CC(C)(C)n1nnc(-c2ccccc2)n1` is listed with -2.1 | -27% | 11 | 12 | 11% | 11
`CCOC(=O)CSc1nnc(NC(=O)CN2CCCCC2)s1` is listed with -1.7 | 23% | 7 | 6 | 1% | 4

High-throughput results from PubChem.
